# From PubChem
# KSHV LANA nucl: inhibitors of KSHV LANA-nucleosome binding, primary screen, biochemical, fluorescence polarization, FITC-LANA1-23, chicken nucleosomes. FITC-LANA1-23 / chicken nucleosome fluorescence polarization; stronger effect = lower value. z-score (test concentration not listed). 0.3% of 51,000 active. AID 720717, 2013;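 active = both repeat wells score below -2 in polarization z-score versus plate sample wells, excluding overly bright wells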;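 note: 100 nL library stock added to about 30 µL; numbers are from one replicate; some results filed as inactive read as strong as hits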
#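 System – purified chicken nucleosomes with FITC-labelled LANA N-terminal peptide (1-23) · Amount – 240 nM purified chicken nucleosomes (480 nM peptide binding sites), final · Also added – 50 nM FITC-LANA1-23 probe · Medium – TEN-BT buffer, pH 7.5 · Incubation – compound with peptide–nucleosome mix 10–45 min at room temperature · Detection – fluorescence polarization, ex 480 nm, em 535 nm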
# BasE inh: BasE siderophore enzyme inhibitors, primary screen, biochemical, Acinetobacter baumannii ATCC 17978, fluorescence polarization | 0.1% of 84,000 active | inhibition, % (test concentration not listed) | AID 485350, 2010 | purified BasE, fluorescence polarization binding displacement;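 active = both replicates above 25% with normal brightness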;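 note: 0% = negative plate control signal and 100% = positive plate control signal; stock transfer was 100 nL into about 30 µL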
# * hit, by the source's call; . = not tested or not shown. Not all compounds are listed, so the mix of outcomes need not match the whole.
Compound | KSHV LANA nucl | BasE inh
COC(=O)N1N=C(CC(C)C)CC1(O)C(F)(F)F (stereo not given) | . | 3.5
CCOC(=O)c1[nH]c(CSc2nncs2)c(C(=O)OCC)c1C | . | -6.6
CC(NCC(=O)Nc1ccccc1C(=O)NC1CC1)c1ccc(F)cc1 (stereo not given) | . | 0.7
COc1ccc(C2=Nc3ccccc3NC(C3CC3)=N2)cc1 | 0.94 | -0.5
NC(=O)c1cccc(NC(=O)C(F)(F)F)c1 | 1 | 3.1
COC(=O)c1cc(OC(=O)c2ccc(=O)[nH]c2)cc(C(=O)OC)c1 | . | 2.2
COc1ccc(-c2nnn(CC(=O)N(Cc3ccco3)C(C(=O)NCC3CCCO3)c3ccco3)n2)cc1 (stereo not given) | 0.94 | -0.6
CCc1c(C(=O)NC(C)C2CCCO2)csc1C (stereo not given) | -0.25 | 3.5
CNS(=O)(=O)c1cccc(C(=O)OCC(=O)N(C)c2ccccc2)c1 | . | 1.4
Cc1ccc2nc(SCC(=O)O)cc(C)c2c1 | -0.36 | 0.2
C1Cc2nn3c(c2C1)n1nc2c(c1n1nc4c(c31)CCC4)CCC2 | 0.058 | -0.3
COc1ccc(/C=C/C(=O)N2CCNC(=O)C2)c(OC)c1 | . | 1.2
O=C1C=CC(=O)N1c1ccc2c(c1)OCO2 | 0.9 | 3.6
CCCOC(=O)C1C2C=CC3(CN(CCc4ccccc4)C(=O)C13)O2 (stereo not given) | 0.48 | 0.2
COc1cc(C(=O)O)cc2c1OCCO2 | . | 0.1
O=C(c1cc(-c2nnc(-c3ccc(Cl)cc3)o2)n(C2CC2)c1)c1ccccc1O | . | -2.7
O=C(CC1CC2CCC1C2)N(Cc1nnc(-c2ccccc2Cl)o1)C1CC1 (stereo not given) | . | -1.1
CCCCOc1ccc(C(=O)Oc2cc(C(=O)OC)nn2C)cc1 | -0.63 | 0.3
Cc1ccc(CNC(=O)c2cc(-c3ccccc3)n[nH]2)cc1 | . | -4.6
COc1c2ccoc2cc2oc(=O)ccc12 | -0.099 | -2.1
Cc1cc(CNCc2nnc3ccccn23)c(C)n1-c1ccnn1C(C)C | . | 1.5
COc1ccc(Cl)cc1S(=O)(=O)N1CCN(C(=O)c2ccco2)CC1 | 0.0075 | 0.7
O=C(COC(=O)CCc1c[nH]c2ccccc12)Nc1cc2[nH]c(=O)[nH]c2cc1Br | . | 0.8
O=C(NCC1CCCO1)c1ccccc1NC(=O)C1CC1 (stereo not given) | 0.027 | -0.4
CSc1ccc(CCNC(=O)c2ccc(CS(=O)c3cccc(C)c3)o2)cc1 (stereo not given) | 0.34 | 0.5
Cc1cc(-c2ccc(S(=O)(=O)N(C)C3CCCCC3)s2)on1 | . | 1.6
O=C(COC(=O)C1=COCCO1)Nc1ccccc1 | . | 1.9
CS(=O)(=N/C=C(\C#N)C(=O)c1ccco1)c1ccc(Cl)cc1 (stereo not given) | 2.4 | -1.6
COc1ccc(C(=O)/C(Br)=C\C(=O)O)cc1 | -0.38 | .
CC1CCCCC1NC(=O)CN1C(=O)c2cccc(N)c2C1=O (stereo not given) | . | 2.3
CC1=NN(c2cccc(SC(F)F)c2)C(=O)C1 | -1.3 | 2.4
O=C(NC(=O)c1c(Cl)cccc1Cl)Oc1ccc(C(F)(F)F)cc1 | . | 8.0
Cc1ccc(S(=O)(=O)N2CCC[C@H]2C(=O)Nc2ccc(-c3nnc4n3CCCCC4)cc2)cc1 | . | 1.3
C=CCN1C(=O)C(C(C)CC)NC1=S (stereo not given) | . | 0.5
Cc1cc(C)nc(SC2=CS(=O)(=O)c3ccccc32)n1 | -0.26 | 0.2
CC(=O)N1N=C(c2ccccc2)OC12CCCC2 | -0.76 | 0.5
O=C1c2ccccc2C(=O)N1Cc1nc2ccccc2c(=O)n1CCN1CCOCC1 | 1.9 | -5.3
O=C(Nc1ccccc1)Nc1c[nH]c2ccccc12 | 0.024 | -0.8
COc1ccc(S(=O)(=O)N2CCN(CCO)CC2)cc1 | -0.46 | 1.0
CC(C)(C)c1cc(/C=C2\SC(=S)NC2=O)cc(C(C)(C)C)c1O | . | 1.6
Cc1cc(C(=O)O)c(C)n1-c1ccccc1 | . | 0.8
Cc1ccc2nc(SCc3nc4ccccc4c(=O)n3CC#N)[nH]c2c1 | . | -23
COCCNC(=O)c1nnc(Cc2ccc(OC)c(OC)c2)o1 | -0.69 | 1.4
CC(C)C(NC(N)=O)C(=O)O (stereo not given) | . | 3.5
CCS/C(=C(\C#N)C(N)=O)c1ccc(-c2ccccc2)[nH]1 | 0.8 | -0.2
CCCNS(=O)(=O)c1ccc(NC(=O)COc2ccccc2)cc1 | 0.36 | 1.9
CCCCN(CC)C(=O)Cn1ncc2c([nH]c3ccc(C)cc32)c1=O | . | -2.6
O=c1cnc2ccccc2[nH]1 | -0.031 | 2.9
CS(=O)(=O)N(c1ccccc1)C1CSC1 | -0.67 | -1.4
Cc1ccc(OCc2n[nH]c(=S)n2C2CCCCC2)c2c1CCC2 | . | -1.6
NC(=O)NCCc1cccs1 | . | -0.9
CCn1c(C(=O)NCc2ccc(Cl)cc2)cc2oc3ccccc3c21 | 0.8 | 0.8
COc1ccc2oc(-c3ccc(OC)c(OC)c3)cc(=O)c2c1 | -1.6 | 2.1
Cc1nnc2c3ccccc3nc(Nc3ccc4c(c3)OCCO4)n12 | . | -1.4
O=C(CSc1nc2scc(-c3ccccc3)c2c(=O)n1-c1ccccc1)c1ccco1 | . | -3.0
NC(N)=NC(N)=Nc1cccc(C(=O)O)c1 | . | -2.4
CC(C)=NNC(=O)Cc1cn2ccsc2n1 | . | -2.1
NC(=O)c1cc(-c2ccccc2)sc1N | . | 19
O=C(O)Cc1ccc(-c2ccccc2)cc1 | -0.81 | 2.3
N#CC(C#N)(Cc1ccccc1)Cc1ccccc1 | . | 3.3

# The list continues.
Compound | KSHV LANA nucl | BasE inh
CCn1c(N)c(-c2csc(C)n2)c(=O)n(CC(=O)NCCC2=CCCCC2)c1=O | . | -0.3
COc1ccc(CCN=C2SCCN2C(=O)COc2ccccc2C#N)cc1 | . | 1.6
O=C(Cn1ccc2cc(S(=O)(=O)N3CCCC3)ccc21)NCCc1ccccc1 | . | -1.4
NNC(=O)c1ccc(CS(=O)(=O)c2ccccc2)o1 | . | 1.3
CC(C)NC(=O)c1cnn(-c2cccc(F)c2)c1-n1cccc1 | . | 2.4
NC1=NCC(O)=C1c1nc2ccccc2s1 | . | 3.3
Nc1ncncc1C(=O)O | . | 0.8
N#CCCSc1nsc(N)n1 | -0.36 | -0.3
C=CCc1c(C)[nH]c(=S)[nH]c1=S | -0.09 | 1.8
O=C(Cc1n[nH]c(=O)c2ccccc12)NCCN1C(=O)S/C(=C\c2ccc(F)cc2)C1=O | . | 2.7
NC(=O)Cc1ccc(C(=O)CSc2nnc(-c3cccs3)n2C2CC2)s1 | . | 2.1
COc1cccc(CNCC(=O)N2C(C)CCCC2C)c1 (stereo not given) | -0.76 | -1.3
O=C(N/N=C/C=C/c1ccccc1)c1n[nH]c2c1CCC2 | -0.21 | 0.1
COC(=O)C1=C(C)N(c2ccccc2)/C(=C/c2ccc(OC)cc2)C1=O | -0.41 | -2.2
O=C(Nc1ccc2nc(N3CCOCC3)sc2c1)C1CCCN1C(=O)c1cccs1 (stereo not given) | . | -0.5
CCOC(=O)C1=C(CC)Nc2ccccc2N=C1N | . | 0.0
CCOc1ccc(C(=O)NC2CCN(CC(=O)NCc3ccccc3)CC2)cc1 | -0.79 | -1.6
COc1ccc(Cl)cc1N(CC(=O)Nc1ccccc1C(=O)N1CCOCC1)S(C)(=O)=O | -0.67 | 2.9
Cc1ccc(NC(=O)CC2SC(=Nc3ccc(C)cc3C)N(CCN3CCOCC3)C2=O)cc1 (stereo not given) | . | 0.8
c1ccc(C2=N[C@H](c3ccccc3)[C@H](c3ccccc3)N2)cc1 | . | 1.3
Cc1nc2ccccc2c2oc(C(=O)NCCC3=CCCCC3)cc12 | -0.2 | 0.7
Cc1ccc(S(=O)(=O)Nc2ccc(C(O)(C(F)(F)F)C(F)(F)F)cc2)cc1 | . | 14
CC(C)CC(=O)N1C(=O)c2cccc3c(S(=O)(=O)N(C)C)ccc1c23 | 0.18 | -0.6
N#CCCn1cc(/C=N/NC(=O)c2ccncc2)c(-c2ccc(F)cc2)n1 | . | -0.9
CCc1ccc(Nc2ncnc3sc(C)cc23)cc1 | . | 3.4
O=C(Nc1ccccc1)NC1CS(=O)(=O)CC1NC(=O)Nc1ccccc1 (stereo not given) | . | 0.7
CCONC1=NCC(C)S1 (stereo not given) | . | 0.0
O=C(NCCCN1CCN(Cc2c(F)cccc2Cl)CC1)c1cccc(C(F)(F)F)c1 | . | 1.6
O=C(CSc1nnc(-c2ccccc2)o1)NC(=O)Cc1ccccc1 | . | -0.4
CCOC(=O)C1=C(CN2CCc3ccccc3C2)NC(=O)NC1c1ccc(OC(C)C)cc1 (stereo not given) | -0.5 | 3.5

# Gathered by group: the compounds so far with two or more sulfur atoms.
Compound | KSHV LANA nucl | BasE inh
CCOC(=O)c1[nH]c(CSc2nncs2)c(C(=O)OCC)c1C | . | -6.6
CSc1ccc(CCNC(=O)c2ccc(CS(=O)c3cccc(C)c3)o2)cc1 (stereo not given) | 0.34 | 0.5
Cc1cc(-c2ccc(S(=O)(=O)N(C)C3CCCCC3)s2)on1 | . | 1.6
Cc1cc(C)nc(SC2=CS(=O)(=O)c3ccccc32)n1 | -0.26 | 0.2
CC(C)(C)c1cc(/C=C2\SC(=S)NC2=O)cc(C(C)(C)C)c1O | . | 1.6
CS(=O)(=O)N(c1ccccc1)C1CSC1 | -0.67 | -1.4
O=C(CSc1nc2scc(-c3ccccc3)c2c(=O)n1-c1ccccc1)c1ccco1 | . | -3.0
N#CCCSc1nsc(N)n1 | -0.36 | -0.3
C=CCc1c(C)[nH]c(=S)[nH]c1=S | -0.09 | 1.8
NC(=O)Cc1ccc(C(=O)CSc2nnc(-c3cccs3)n2C2CC2)s1 | . | 2.1
O=C(Nc1ccc2nc(N3CCOCC3)sc2c1)C1CCCN1C(=O)c1cccs1 (stereo not given) | . | -0.5

# One compound at a time (already shown). Values in the order: KSHV LANA nucl	BasE inh
# Listed for O=C(CSc1nnc(-c2ccccc2)o1)NC(=O)Cc1ccccc1 = .	-0.4
# Listed for c1ccc(C2=N[C@H](c3ccccc3)[C@H](c3ccccc3)N2)cc1 = .	1.3

# Next entries:
Compound | KSHV LANA nucl | BasE inh
S=c1[nH]ccn1-c1ccc(Cl)cc1 | . | 3.3
CN(C)CCc1cc2c(c3c1ccc1ccccc13)OCO2 | . | -0.1
CN(C)c1nc(=S)nc(NCc2ccccc2)[nH]1 | 0.87 | -0.4
O=c1cc(-c2ccccc2)nc2nc[nH]n12 | 0.64 | -0.1
O=C1NC(=O)N(C2CCCCC2)C(=O)/C1=C\C=C\c1ccco1 | 1.9 | -4.8
CC1=C/C(=N\NC(=S)Nc2ccc(F)cc2)CC1 | . | -0.2
O=C(Cn1cnc2ccccc21)NN=C1CCCCCC1 | . | 9.5
CCCCc1ccc(NC(=O)CS)cc1 | 1.6 | -3.7
CN(Cc1cc(=O)n2ccsc2n1)C1CCCCC1 | 0.76 | 0.9
Cc1ccc(-n2nc(C)c3c(C(=O)Nc4cccnc4)cc(C)nc32)cc1 | 0.073 | -0.1
CCS(=O)(=O)N1CCN(CC2CC3C=CC2C3)CC1 (stereo not given) | 0.013 | 0.3
CCOC(=O)c1ccc(-c2ccc(C3Nc4ccccc4-c4nnc(SCC)nc4O3)o2)cc1 (stereo not given) | 1.8 | -4.0
COc1cccc(NC(=S)N(CCN(C)C)C(C)c2cccnc2)c1 (stereo not given) | -0.1 | -0.8
Cc1cc(=O)oc2c(/C=N\NC(=O)c3ccc(Br)cc3O)c(O)ccc12 | -0.15 | -21
O=C1/C(=C\c2ccccc2)SC(=S)N1CNc1ccccc1 | . | 2.8
Cc1onc(C(=O)NN)c1-c1csc(COc2ccc(Cl)cc2)n1 | . | 1.1
O=C1NN=C(c2ccccc2)CC1c1c[nH]c2ccccc12 (stereo not given) | . | 1.1
COc1ccc(-c2nc3cc4c(cc3o2)Oc2ccccc2N4)cc1 | . | 1.7
Cc1cc(C(F)(F)F)nc2sc(C(=O)c3cccc(Cl)c3)c(N)c12 | . | 2.9
CC(C)(C)CC(C)(C)NC(=O)Nc1cccc(Cl)c1 | -2* | 1.9
CC1=NN(c2ccccc2)C(=O)C1C(=O)c1ccccc1Br (stereo not given) | . | -0.1
CCOC(=O)N1CCC(NC(=O)c2ccc(C)cc2)CC1 | -0.94 | .
CCOC(=O)N1CCN(C(=O)c2ccc(S(=O)(=O)c3ccc(C)cc3)c(NC(C)=O)c2)CC1 | 1.9 | -5.3
Cc1ccc(/C=C2\C(=O)ON=C2c2ccccc2)o1 | -0.45 | 3.4
COc1ccc(/C=C2\CCc3ccccc3C2=O)cc1COc1ccc(F)cc1 | . | -1.2
CC1(C)CC(=O)c2c(Nc3ccccc3)noc2C1 | 0.16 | 1.1
CN(CC(O)COCc1ccccc1F)C1CCCCC1 (stereo not given) | . | 4.4
O=C(CN1CCN(Cc2ccccc2)CC1)NCCc1ccccc1 | 1.4 | -0.4
COc1cc(OC)nc(NC2OC(=O)c3ccccc32)n1 (stereo not given) | . | 0.6
Cc1cccc(C(=O)Oc2ccc(C)c(C)c2)c1 | . | 3.4
CCN(CC)S(=O)(=O)c1cccc(C(=O)OCC(=O)Nc2cccc(C#N)c2)c1 | . | -2.1
COc1ccc2[nH]c(=O)cc(C(=O)O)c2c1 | 0.52 | 3.1
